Assay outcomes from PubChem BioAssay.
D2 PAM – Beta-Arrestin HTS for Positive Allosteric Modulators of the Human D2 Dopamine Receptor: Potentiators. D(2) dopamine receptor (Homo sapiens), P14416. AID 624464, 2012. DiscoveRx D2 beta-arrestin cells, luminescence, 90 min; 100% = 57 uM dopamine signal. 360,000 compounds, 0.23% hits. potentiation, % (concentration not given with the values); active = potentiation of 50% or more; inconclusive = 30% to 50%; inactive = 30% or less;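 also: tested on top of an EC20 dose of dopamine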
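D2 cells co-treated with compound plus 50 nM dopamine (EC20) for 90 min at 37 deg C to detect potentiation. Beta-arrestin recruitment was read as enzyme-fragment luminescence after 1 h at ambient temperature. Full response was set by 57 uM dopamine.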
Sfp inh – qHTS Assay for Inhibitors of Bacillus subtilis Sfp phosphopantetheinyl transferase (PPTase); 4'-phosphopantetheinyl transferase ffp (Bacillus subtilis), Q9F4F7; Biochemical Sfp PPTase activity, qHTS; Potency, µM, inactives show max response, negative = inhibition, usual class: inhibitors; 310,000 compounds, 3.5% hits; active = well fitted inhibition curve with a large enough effect; inconclusive = small, poorly fitted or top-dose-only effect, or another doubt; inactive = no such curve, though single readings can be large or run the other way;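 also: the enzyme is Sfp with the accession as filed and its product quenches rhodamine fluorescence; potency is read from the fitted curve at half-maximal effect; 0% = enzyme reaction without inhibitor and -100% = no enzyme wells; top concentration of the series not given in the record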
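Step 1, compound plus 15 nM Sfp-PPTase, 15 min, room temperature. Step 2, add rhodamine-CoA (5 uM) and BHQ-2-YbbR (12.5 uM). Step 3, read 525/598 nm fluorescence at 0 and 30 min.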
D2 agonist – Beta-Arrestin HTS for Positive Allosteric Modulators of the Human D2 Dopamine Receptor: Agonists; D(2) dopamine receptor (Homo sapiens), P14416; DiscoveRx PathHunter D2 beta-arrestin, luminescence, 90 min; 100% = 57 uM dopamine signal; activation, % (no concentration beside the values); 360,000 compounds, 0.084% hits; AID 624465, 2012; in the data active = activation above about 40%; inconclusive = about 15% to 40%; inactive = below about 15%; also: compound concentration not given in the record; the text of the record calls up to 30% inactive
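DiscoveRx PathHunter D2 beta-arrestin cells (2,100/well) attached overnight, then compound-stimulated 90 min at 37 C in HBSS/10 mM HEPES/0.1% Tween-20 buffer; beta-galactosidase complementation read by luminescence after 1 h at ambient temperature. Dopamine 57 uM final (EC100) as control.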
TRPV1 PAM – HTS Assay for Compounds that Act as Potentiators of the Vanilloid Receptor 1; TRPV1-expressing cells, Fluo-8 calcium influx, capsaicin EC20 potentiation; host cell line not named in the record; control for the full effect not named in the record; potentiation, % at 8.33 µM; 320,000 compounds, 0.02% hits; AID 540277, 2011; active means potentiation above 80%; inconclusive means 30% to 80%; inactive means below 30%; also: 0% is about no effect
Target sequence (Q8NER1 whole entry, looked up): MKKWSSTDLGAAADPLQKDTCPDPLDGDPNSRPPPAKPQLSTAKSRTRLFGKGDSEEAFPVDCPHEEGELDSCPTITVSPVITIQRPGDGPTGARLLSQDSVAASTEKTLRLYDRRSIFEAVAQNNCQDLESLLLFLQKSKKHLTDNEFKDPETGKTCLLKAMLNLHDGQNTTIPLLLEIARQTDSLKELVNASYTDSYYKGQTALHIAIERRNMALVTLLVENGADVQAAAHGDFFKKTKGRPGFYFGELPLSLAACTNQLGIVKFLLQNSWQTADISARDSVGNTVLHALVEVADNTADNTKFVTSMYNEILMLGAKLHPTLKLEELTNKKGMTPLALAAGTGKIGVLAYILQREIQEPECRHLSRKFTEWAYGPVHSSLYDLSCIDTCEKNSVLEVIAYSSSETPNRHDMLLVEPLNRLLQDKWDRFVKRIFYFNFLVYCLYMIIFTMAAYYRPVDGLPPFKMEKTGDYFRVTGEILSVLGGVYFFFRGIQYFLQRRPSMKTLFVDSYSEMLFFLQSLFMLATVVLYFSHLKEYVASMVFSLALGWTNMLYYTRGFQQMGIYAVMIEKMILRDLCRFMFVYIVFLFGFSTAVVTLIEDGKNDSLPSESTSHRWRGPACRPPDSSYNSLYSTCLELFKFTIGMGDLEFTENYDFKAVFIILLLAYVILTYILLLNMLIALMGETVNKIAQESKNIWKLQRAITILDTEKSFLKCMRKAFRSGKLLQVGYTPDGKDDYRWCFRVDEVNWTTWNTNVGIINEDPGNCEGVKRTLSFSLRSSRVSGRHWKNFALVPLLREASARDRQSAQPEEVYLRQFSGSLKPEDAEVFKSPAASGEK
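Fluo-8 calcium influx in TRPV1-expressing cells, kinetic read (ex 480/em 520 nm). Compound added and read 3 min for agonist activity, followed by capsaicin at EC20 final and 2 min further read for enhancement.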
Six1-Eya2 inh – qHTS Assay for Inhibitors of the Six1/Eya2 Interaction; Homeobox protein SIX1 (Homo sapiens) + Protein phosphatase EYA2 (Homo sapiens), …; AlphaScreen GST-Six1/His-Eya2 binding, biochemical; stronger effect = lower value; control for the full effect not named in the record; activity change, % (no concentration beside the values); 360,000 compounds, 0.56% hits; AID 651725, 2012; in the data active = activity change below about -65%; inconclusive = about -30% to -65%; inactive = above about -30%; also: % is scaled to controls: 0 for no effect and ±100 for the full control effect
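AlphaScreen luminescence read after one hour at 37 °C in darkness. Pin-transferred compounds met GST-Six1 and His-Eya2 protein (5X stock 250 nM/500 nM) plus glutathione donor and Ni-chelate acceptor beads (5X, 50 ug/mL).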
CtBP-E1A blk – qHTS Assay for Inhibitors of the CtBP/E1A Interaction; CtBP / adenovirus E1A interaction (AlphaScreen); AlphaScreen GST-E1A/His-CtBP binding, 1536-well; stronger effect = lower value; control for the full effect not named in the record; activity change, % (no concentration beside the values); 340,000 compounds, 0.49% hits; in the data active means activity change below about -65%; inconclusive means about -30% to -65%; inactive means above about -30%; also: % is scaled to controls: 0 for no effect and ±100 for the full control effect
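Protein mix (5X: 125 nM each GST-E1A, His-CtBP) was incubated with pinned compound 2 h at 37 deg C in dark, in 50 mM Tris pH 8.0 buffer with 300 mM NaCl. Glutathione donor and nickel acceptor beads followed; AlphaScreen signal read after 1 h.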
PINK1 expr mod – A Quantitative High throughput Screen to Identify Chemical Modulators of PINK1 Expression; 410,000 compounds, 0.2% hits; Potency, µM (top dose mostly 76.6 µM), without a hit: at the top dose activation (PINK1 increase), hits mostly activators; PINK1 immunofluorescence, high-content cytometry, 24 h; active = well fitted activation curve with a large enough effect; inconclusive = small, poorly fitted or top-dose-only effect; inactive = flat fitted curve, though single readings scatter; cell line not stated here;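 also: potency is read from the fitted curve at half-maximal effect; % of control where 0% means no effect; nearly all actives have a fitted effect of over 65% in size; a mitochondrial uncoupler was the plate control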
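Cells are seeded, rested 12 hours, then given compound at five concentrations or DMSO for 24 hours. After fixation, blocking and antibody staining, PINK1 amount and mitochondrial localization are scored; CCCP serves as control.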
Numbers without * were called inactive; u = inconclusive; x = not tested or not shown; & = joins results of further samples; [ ] = remark or other dose.

SMILES	D2 PAM	Sfp inh	D2 agonist	TRPV1 PAM	Six1-Eya2 inh	CtBP-E1A blk	PINK1 expr mod
CCC(C)C(NC(=O)C1CCC(C)CC1)C(=O)Nc1ccc(OC)cc1 (stereo not given)	-6	5%	-7.6	-9	-1	4	u
Cc1nc(-c2ccc(S(=O)(=O)N3CCN(CCc4ccccc4)CC3)s2)cs1	-7	12%	-4.0	9	1	6	5.1%
O=C(CCc1nc(-c2cccs2)no1)Nc1cnc2ccccc2c1	-9	10%	1.2	13	0	-4	0.1%
O=C1[C@H]2[C@@H](c3ccc(F)cc3)N3C(=O)N(c4ccc(Br)cc4)C(=O)[C@@]3(Cc3ccccc3)[C@H]2C(=O)N1C1CCCCC1	-16	12%	-3.5	-4	-9	-8	0.0%
CCOc1ccc(NS(=O)(=O)c2cc(C(=O)N3CCC3)ccc2Cl)cc1	-21	x	-0.2	-5	4	-7	-2.8%
O=C1c2ccccc2-c2n[nH]c(=O)c3ccc(N4CCCCC4)c1c23	-4	-9%	-4.9	-3	u	u	0.2%
N#C/C(=C/c1ccncc1)c1nc2ccccc2c(=O)[nH]1	1	-17%	-7.0	-15	-22	-18	-0.9%
COc1ccc(F)c(CN2CCC(CO)(Cc3cccc(C(F)(F)F)c3)CC2)c1	-7	22%	-5.1	-15	18	1	3.7%
CCn1c(SCC(=O)N/N=C/c2c[nH]c3ccccc23)nnc1-c1ccc(Cl)cc1	12	7%	2.4	16	-20	-16	3.6%
COc1ccc(N2CC(C(=O)Nc3cccc(C)n3)CC2=O)cc1 (stereo not given)	-4	4%	-3.8	3	-2	x	2.5%
Cc1cc(Cl)ccc1OCCCC(=O)NO	15	4%	0.4	-23	-7	-6	-0.7%&0.4%
CCC(Sc1nc(C)cc(C)n1)C(=O)Nc1nccs1 (stereo not given)	2	-20%	1.6	-7	1	2	0.5%
COc1ccc(NC(=O)CN2C(=O)NC(C)(c3ccc4c(c3)OCCO4)C2=O)cc1S(N)(=O)=O (stereo not given)	-2	x	3.2	x	-14	6	2.6%
Cc1cc(Br)c(S(=O)(=O)NCc2ccncc2)cc1C	-2	11%	2.4	6	-16	-4	-1.5%
Cc1ccc(NC(=O)Cn2c(=O)oc3ccccc32)c(C)c1	0	11%	-0.1	-2	1	-4	0.7%
Fc1ccccc1/C=N/Nc1ccc(Cl)nn1	-2	4%	0.3	9	1	0	-0.1%
Cc1noc(C)c1COc1ccccc1C(=O)NC(C)c1ccc(Cl)cc1 (stereo not given)	8	x	10	-27	4	4	0.5%
Cc1cc(NS(=O)(=O)c2ccc(NC(=O)C(C)Oc3ccc(Cl)cc3)cc2)no1 (stereo not given)	-2	12%	-0.9	-10	-1	0	5.2%[38.3 µM]
CCOc1ccc(CN(C)CC(=O)Nc2cccc(C)c2)cc1OC	4	4%	-1.8	-5	3	-13	0.7%
Cc1ccccc1SCC(=O)N1CCN(c2ccc(C(F)(F)F)cn2)CC1	-3	-10%	-6.2	-14	6	0	2.7%
CC(C)Cc1nnc(NC(=O)C2CCN(C(=O)c3ccc(Cl)cc3)CC2)s1	23	x	-3.2	-2	5	11	u
C/C(=N\NC(=O)c1cc2ccccc2cc1O)c1ccccn1	-5	13%	-1.7	10	-23	-21	6.4%
COc1cc(-c2cc(=O)c3c(O)c(OC)c(OC)c(OC)c3o2)cc(OC)c1OC	4	7%&-3%	1.8	-14	-3	1	1.3%&1.9%
CN(Cc1ccccc1)C(=O)CCNS(=O)(=O)c1ccc2c(c1)oc(=O)n2C	1	14%	2.6	-3	-2	3	-0.6%[38.3 µM]
CC(Oc1ccc2c3c(c(=O)oc2c1)CCCC3)C(=O)NCc1cccnc1 (stereo not given)	-12	5%	-2.5	-27	3	x	1.1%
COCCN(C(=O)c1ccc(C#N)cc1)c1c(N)n(Cc2ccccc2)c(=O)[nH]c1=O	-1	x	-4.0	-9	-3	x	1.6%
COCC(=O)N1CCC(Oc2ccc(C(=O)N3CCN(C)C[C@@H]3C(C)C)cc2)CC1	-6	18%	5.0	-5	6	x	-1.9%
O=C(c1ccc(Br)cc1)N1CCN(c2ccccn2)CC1	-19	x	-0.9	x	-4	5	-1.5%
CCN(CC)CCNC(=O)Cn1nc(Cc2ccccc2)c2ccccc2c1=O	-8	13%	-0.4	-5	10	7	-2.4%
Cc1csc(NC(=O)CCn2c(=O)sc3ccccc32)n1	-8	14%	-2.7	18	-2	-7	2.0%
C=CCn1c(-c2cccn(Cc3ccc(Cl)cc3)c2=O)n[nH]c1=S	-6	7%	-2.7	-2	4	-1	0.1%[38.3 µM]
Cn1c(N)c(C(=O)COC(=O)Cc2ccc(Cl)c(Cl)c2)c(=O)n(C)c1=O	-9	x	-2.8	x	-5	x	0.6%
Cc1c(NC2=NC3(CCCCC3)Cc3ccccc32)c(=O)n(C)n1-c1ccccc1	-9	11%	-1.0	5	-16	-13	-2.9%
CCc1ccc(-c2nc(CSCC(=O)N3CCN(c4ncccn4)CC3)c(C)o2)cc1	-5	u	-0.3	x	1	0	3.2%
C=CCC(NCc1ccco1)c1ccc(OC)cc1 (stereo not given)	-4	13%	-6.5	11	-5	1	0.0%
CCCCNc1nnc(CCn2nc(C)c(Br)c2C)s1	-1	0%	-1.5	-3	4	2	-2.7%
Cc1ccc(C(=O)CN2C(=O)NC3(CCCCC3C)C2=O)s1 (stereo not given)	-4	x	-3.7	-3	13	x	0.6%
O=C(CCS(=O)(=O)c1cccc2nonc12)N1CCCc2ccccc21	19	-7%	-0.9	4	0	9	1.7%
CCn1cc(C(=O)NCc2cccnc2)c2cc(OC)c(OC)cc2c1=O	8	2%	0.3	7	1	1	-2.8%
CC1(C(=O)NS(=O)(=O)c2ccccc2)CCN1C(=O)Cc1cccc2ccccc12 (stereo not given)	-13	x	-3.1	x	1	-1	1.2%
Nc1ccc(S(=O)(=O)NC(Cc2ccccc2)C(=O)O)cc1 (stereo not given)	-21	10%	-3.1	0	-2	x	-1.1%
O=C(NCc1ccncc1)Nc1ccccc1F	-8	23%	1.9	-4	8	x	2.8%
COc1ccc(S(=O)(=O)NC(=O)C2(C)CCN2C(=O)C2CC2)cc1 (stereo not given)	-4	x	-3.5	x	4	-3	1.0%
O=C(NCCCCNC(=O)c1ccco1)c1ccco1	-8	8%	-2.2	9	6	-3	1.4%
CC1(C)CC(c2nc(-c3ccc(Br)cc3)cs2)CCS1 (stereo not given)	0	-3%	0.4	14	27	31	27%
Cc1nc(NC(=O)C(C)(C)C)sc1-c1nc(N)sc1-n1cc(-c2ccccc2)nn1	x	x	x	x	-12	0	0.7%
NC(=O)c1c(NC(=O)C2CCCO2)sc2c1CCC2 (stereo not given)	-8	0%	-2.1	-3	0	6	19%[38.3 µM]
CSc1nc(C)c(Cc2c(F)cccc2Cl)c(=O)[nH]1	-13	5%	-3.6	-14	8	x	3.5%
COc1ccccc1Nc1nnc(SCC(=O)N2CC(=O)Nc3ccccc32)s1	-21	8%	-0.5	-3	-2	14	-0.6%
CN(O)C(=O)Nc1ccc([N+](=O)[O-])cc1	17	13%	4.4	5	12	1	0.6%
COc1ccc(NC(=O)CSc2nc3ccsc3c(=O)n2Cc2ccccn2)c(OC)c1	1	6%	-6.2	9	9	20	0.8%
O=C(O)CC(Cc1ccccc1)c1ccc2c(c1)OCO2 (stereo not given)	-6	17%	1.6	7	13	9	9.6%
Cc1cccc(-c2c3c(=O)n(C)c(=O)n(C)c3cn2C2CCCCC2)c1	-2	7%	-1.7	-4	-3	-1	1.6%[38.3 µM]
CC(C(=O)NCCCN1CCOCC1)n1cccc1C(=O)c1ccccc1 (stereo not given)	1	22%	-2.8	-1	4	0	0.9%
O=C1CCCN1CCC(=O)N1CCCC(CO)(Cc2ccccc2)C1 (stereo not given)	-10	13%	-4.4	3	1	3	-0.6%
NNC(=S)NCCc1ccccc1	-10	8%	-3.9	18	-2	4	0.8%
O=S(=O)(c1cccs1)N1CN(Cc2ccccc2)c2nc3ccccc3nc21	-2	13%	-1.6	5	-9	-16	3.0%

Grouped by structure: those above with two or more sulfur atoms
SMILES	D2 PAM	Sfp inh	D2 agonist	TRPV1 PAM	Six1-Eya2 inh	CtBP-E1A blk	PINK1 expr mod
Cc1nc(-c2ccc(S(=O)(=O)N3CCN(CCc4ccccc4)CC3)s2)cs1	-7	12%	-4.0	9	1	6	5.1%
CCC(Sc1nc(C)cc(C)n1)C(=O)Nc1nccs1 (stereo not given)	2	-20%	1.6	-7	1	2	0.5%
Cc1csc(NC(=O)CCn2c(=O)sc3ccccc32)n1	-8	14%	-2.7	18	-2	-7	2.0%
CC1(C)CC(c2nc(-c3ccc(Br)cc3)cs2)CCS1 (stereo not given)	0	-3%	0.4	14	27	31	27%
Cc1nc(NC(=O)C(C)(C)C)sc1-c1nc(N)sc1-n1cc(-c2ccccc2)nn1	x	x	x	x	-12	0	0.7%
COc1ccccc1Nc1nnc(SCC(=O)N2CC(=O)Nc3ccccc32)s1	-21	8%	-0.5	-3	-2	14	-0.6%
COc1ccc(NC(=O)CSc2nc3ccsc3c(=O)n2Cc2ccccn2)c(OC)c1	1	6%	-6.2	9	9	20	0.8%
O=S(=O)(c1cccs1)N1CN(Cc2ccccc2)c2nc3ccccc3nc21	-2	13%	-1.6	5	-9	-16	3.0%
